rRNA inh HTS: inhibits bacterial ribosomal RNA function over humanized ribosomes. 350,000 tested, 1.6% active. E. coli WT GFP vs humanized-ribosome RFP mutants, fluorescence, 24 h; hits give low values; DMSO median 0, no signal -100. GFP signal change (wild-type ribosome), % (concentration not given with the values);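 active means significant combined selectivity score with lowered wild-type GFP, culture density cut under 30%, mutant RFP and density less affected; inactive means any of these conditions unmet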; further: one replicate is shown; some compounds called inactive have numbers as strong as hits
FGF22 binding: binders of recombinant human FGF22 by thermal shift; Q9HCT0; AID 651658; SYPRO orange fluorescence; percent of sucrose octasulfate shift, DMSO zero; calls only at 9.99 µM; 340,000 tested, 1.5% active;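 active means melting point raised past a set limit in the mean and every replicate; three in four hits are not shown here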
Target sequence (Q9HCT0 whole entry, looked up): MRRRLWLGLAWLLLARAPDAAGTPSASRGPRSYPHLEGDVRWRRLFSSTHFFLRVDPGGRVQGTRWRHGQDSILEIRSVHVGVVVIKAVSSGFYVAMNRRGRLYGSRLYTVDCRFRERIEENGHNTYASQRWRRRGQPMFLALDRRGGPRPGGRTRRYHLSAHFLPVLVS
rRNA inh HTS OD600: further read-out of rRNA inh HTS, marked with its call; OD600 change, %; measured here: OD600 growth;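 optical density of the mix in the first replicate; 0 = DMSO median and -100 = no signal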
rRNA inh HTS RFP: second read-out of rRNA inh HTS, no call of its own (marks repeat the call); RFP signal change, %; measured here: RFP humanized mutant strains;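 first replicate; 0 = DMSO median and -100 = no signal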
The depositor's hits bear a star; i = inactive; nt = not tested or not shown. These rows are one share of the data; the hit share may differ from the screen's.

no.	Compound	rRNA inh HTS	rRNA inh HTS OD600	rRNA inh HTS RFP	FGF22 binding
1	COc1ccc(S(=O)(=O)N[C@H]2CC[C@H](CCn3cc(-c4cccc(F)c4)nn3)O[C@H]2CO)cc1	-3.7	-6.4	0.0	i
2	C[C@@H]1CN([C@H](C)CO)C(=O)c2cc(N(C)C)ccc2O[C@@H]1CN(C)C(=O)NC1CCCCC1	1.3	13.9	0.0	i
3	Cc1nn(C)cc1NC(=O)C[C@H]1CC[C@H]2[C@H](COc3ccc(NC(=O)NC(C)C)cc3C(=O)N2C)O1	0.1	-4.0	-1.8	i
4	COCC(=O)N[C@H]1C=C[C@@H](CC(=O)NCc2ccccc2OC)O[C@H]1CO	3.6	2.1	-0.7	i
5	CCOc1ccccc1C(=O)N1CCC[C@@H]1C(=O)N1CCC[C@H]1C(=O)NCc1ccccc1	23.3	18.4	1.4	i
6	C[C@H]1CCCCO[C@@H](CN(C)S(=O)(=O)c2cccs2)[C@@H](C)CN([C@@H](C)CO)C(=O)c2cc(NC(=O)C3CCCCC3)ccc2O1	0.6	-0.9	-2.5	i
7	C[C@@H]1CN([C@@H](C)CO)C(=O)c2cccc(NS(=O)(=O)c3ccccc3)c2O[C@H]1CN(C)C(=O)Nc1ccc(F)cc1	3.7	10.8	0.3	i
8	Cc1noc(C)c1NC(=O)Nc1ccc2c(c1)C(=O)N([C@@H](C)CO)C[C@H](C)[C@H](CN(C)Cc1ccncc1)OCCCC[C@@H](C)O2	0.5	8.8	0.1	i
9	COC(=O)C1=C(C)N(Cc2ccc(C(F)(F)F)cc2)C(=NCc2ccc3c(c2)OCO3)NC1c1ccccc1 (stereo not drawn)	-58.2	-79.0	-12.4	nt
10	CCC(=O)N[C@H]1CC[C@@H](CC(=O)OC)O[C@H]1CO	3.2	5.0	-1.5	i
11	COc1ccccc1CN1[C@H](CO)[C@H]2c3ccccc3N(C(=O)c3ccc(F)cc3)C[C@H]21	-2.7	-3.0	4.6	i
12	CO[C@@H]1CN(C)C(=O)c2ccc(NC(=O)C3CC3)cc2OC[C@H](C)N(C(=O)c2ccccn2)C[C@H]1C	4.3	8.0	-2.0	i
13	CCc1cnc(N2[C@@H](C#N)[C@@H](c3ccc(C4=CCCC4)cc3)[C@@H]2CO)s1	1.1	0.0	1.2	i
14	N#C[C@@H]1[C@H](c2ccc(-c3ccccc3F)cc2)[C@@H](CO)N1C(=O)C1CCC1	2.2	-26.8	2.5	i
15	C[C@H](CO)N1C[C@H](C)[C@@H](CN(C)Cc2ccccc2C(=O)O)Oc2cc(-c3ccccc3)ccc2S1(=O)=O	-3.5	-6.1	-2.2	i
16	C/C=C/c1ccc2c(c1)O[C@H](CN(C)C(=O)C1CCOCC1)[C@@H](C)CN([C@H](C)CO)S2(=O)=O	0.5	-3.6	-0.1	i
17	C[C@@H]1CN([C@H](C)CO)S(=O)(=O)c2ccc(-c3ccc(F)cc3)cc2O[C@H]1CN(C)C	0.8	-1.1	-1.5	i
18	CC(C)COC(=O)N(C)C[C@H]1OCc2ccccc2-c2ccccc2C(=O)N([C@@H](C)CO)C[C@H]1C	1.5	-1.8	0.2	i
19	C/C=C/c1ccc([C@@H]2[C@@H](CO)N(C(C)=O)[C@@H]2CN(CC)C(=O)CN(C)C)cc1	0.2	-2.5	-2.1	i
20	CN[C@H]1C[C@H]2c3[nH]c4c(-c5ccccc5)cccc4c3CCN2C[C@H]1[C@H](C)O	-49.7	-82.1	-16.6	i
21	C[C@H]1CN([C@@H](C)CO)S(=O)(=O)c2ccc(-c3cccc(C(=O)N(C)C)c3)cc2O[C@H]1CN(C)C	-2.4	-13.8	-2.5	i
22	C[C@H]1CN([C@@H](C)CO)C(=O)Cc2cc(NC(=O)CCCCCC(=O)Nc3ccccc3N)ccc2O[C@@H]1CN(C)C(=O)Nc1cccc2ccccc12	0.0	-0.5	-0.3	i
23	C[C@@H]1CN([C@@H](C)CO)C(=O)Cc2cc(NC(=O)CCCCCC(=O)Nc3ccccc3N)ccc2O[C@@H]1CN(C)S(=O)(=O)c1ccccc1	0.9	10.4	1.6	i
24	CCCCS(=O)(=O)N1CCCc2nc(-c3ccc(OC)cc3)ccc21	-11.4	-27.6	-3.7	i
25	COc1cccc(CNC(=O)C[C@H]2CC[C@H]3[C@H](COc4ccc(NC(C)=O)cc4C(=O)N3C)O2)c1	-1.8	-1.4	0.2	i
26	NC(=O)c1ncn([C@@H]2O[C@H](C(=O)Nc3ccc(Oc4ccccc4)nc3)[C@@H](O)[C@H]2O)n1	13.3	15.7	6.8	i
27	COc1ccc(S(=O)(=O)Nc2ccc3c(c2)CC(=O)N([C@@H](C)CO)C[C@@H](C)[C@H](CN(C)Cc2ccc(C(=O)Nc4ccccc4N)cc2)O3)cc1	-2.0	-10.9	-0.4	i
28	C[C@@H]1CN([C@H](C)CO)C(=O)c2cccc(NS(=O)(=O)c3cn(C)cn3)c2O[C@H]1CN(C)Cc1ccc(C(=O)O)cc1	3.2	7.5	-1.3	i
29	CCCNC(=O)N1CC2(CN(C(=O)C3CCOCC3)C2)c2c([nH]c3cc(OC)ccc23)[C@H]1CO	2.3	8.1	-4.1	i
30	C(=CCSc1ccccn1)CSc1ccccn1	1.4	-2.6	0.9	i
31	CCS(=O)(=O)Nc1ccc2c(c1)C(=O)N(C)C[C@@H](OC)[C@H](C)CN(CCC(F)(F)F)[C@H](C)CO2	-2.7	-5.5	-0.3	i
32	C[C@H]1CN([C@@H](C)CO)C(=O)c2cc(-c3ccccc3F)cnc2O[C@@H]1CN(C)C(=O)c1cnccn1	3.6	0.3	-2.3	i
33	C[C@H](CO)N1C[C@H](C)[C@@H](CN(C)Cc2ccc(C(F)(F)F)cc2)Oc2c(NC(=O)Nc3ccccc3)cccc2C1=O	0.5	7.8	-0.5	i
34	Cc1cc(C(=O)Nc2ccc3c(c2)C(=O)N(C)[C@H]2CC[C@H](CC(=O)NCc4ccc(-c5ccccc5)cc4)O[C@@H]2CO3)no1	-7.9	-11.8	0.6	i
35	COc1ccc(S(=O)(=O)Nc2ccc3c(c2)C(=O)N([C@@H](C)CO)C[C@H](C)[C@H](CN(C)C(=O)c2ccccc2)OCCCC[C@@H](C)O3)cc1	0.8	-6.7	-1.7	i
36	COc1cccc(CNC(=O)C[C@H]2CC[C@@H]3[C@@H](COc4ccc(NC(=O)c5cccs5)cc4C(=O)N3C)O2)c1	-2.4	-9.4	0.1	i
37	CN(C)C(=O)c1ccc(-c2ccc(C3[C@H]4CNC[C@@H]3N4C(=O)Nc3cccc(Cl)c3)cc2)cc1 (stereo partly drawn)	3.6	-1.0	6.8	i
38	C[C@@H]1CCCCO[C@@H](CN(C)CC2CC2)[C@H](C)CN([C@H](C)CO)C(=O)c2cc(NC(=O)Cc3ccccc3)ccc2O1	5.4	10.6	-1.7	i
39	C[C@@H]1CN([C@H](C)CO)C(=O)c2cccc(NC(=O)Nc3ccc(F)cc3)c2O[C@H]1CN(C)CC1CC1	-2.4	3.6	-0.4	i
40	C[C@H]1CCCCO[C@@H](CN(C)C)[C@@H](C)CN([C@@H](C)CO)C(=O)c2cc(NC(=O)Nc3cccc4ccccc34)ccc2O1	1.8	7.0	2.7	i
41	Cc1ccc(S(=O)(=O)N(C)C[C@H]2Oc3ccc(N(C)C)cc3C(=O)N([C@@H](C)CO)C[C@@H]2C)cc1	-2.7	0.7	0.9	i
42	CC(C)NC(=O)N(C)C[C@H]1OCCCC[C@@H](C)Oc2ccc(NS(=O)(=O)c3ccc(Cl)cc3)cc2C(=O)N([C@H](C)CO)C[C@@H]1C	3.7	9.5	-0.9	i
43	Cc1ccc(S(=O)(=O)Nc2ccc3c(c2)CC(=O)N([C@H](C)CO)C[C@@H](C)[C@H](CN(C)C)O3)cc1	4.6	10.9	0.9	i
44	C[C@H](CO)N1C[C@H](C)[C@H](CN(C)S(=O)(=O)c2ccccc2)Oc2ccc(NC(=O)Cc3ccccc3)cc2CC1=O	0.8	-2.3	1.1	i
45	CCC(=O)N1C[C@H]2[C@@H](c3ccccc31)[C@@H](CO)N2C(=O)CC	5.0	4.2	-0.1	i
46	COc1ccc(S(=O)(=O)Nc2ccc3c(c2)C(=O)N([C@@H](C)CO)C[C@H](C)[C@H](CN(C)Cc2ccc4c(c2)OCO4)OCCCC[C@H](C)O3)cc1	4.8	-9.6	-0.6	i
47	CCNC(=O)C[C@@H]1CC[C@@H]2[C@H](COc3ccc(NC(=O)Cc4cccs4)cc3C(=O)N2C)O1	2.9	0.4	-3.0	i
48	C[C@@H]1CN([C@H](C)CO)C(=O)Cc2cc(NC(=O)Nc3cccc4ccccc34)ccc2O[C@H]1CN(C)C(=O)NC1CCCCC1	-4.3	-12.4	0.2	i

An excerpt from above in order of molecular weight, descending:
no.	Compound	rRNA inh HTS	rRNA inh HTS OD600	rRNA inh HTS RFP	FGF22 binding
46	COc1ccc(S(=O)(=O)Nc2ccc3c(c2)C(=O)N([C@@H](C)CO)C[C@H](C)[C@H](CN(C)Cc2ccc4c(c2)OCO4)OCCCC[C@H](C)O3)cc1	4.8	-9.6	-0.6	i
48	C[C@@H]1CN([C@H](C)CO)C(=O)Cc2cc(NC(=O)Nc3cccc4ccccc34)ccc2O[C@H]1CN(C)C(=O)NC1CCCCC1	-4.3	-12.4	0.2	i
37	CN(C)C(=O)c1ccc(-c2ccc(C3[C@H]4CNC[C@@H]3N4C(=O)Nc3cccc(Cl)c3)cc2)cc1 (stereo partly drawn)	3.6	-1.0	6.8	i

(list continues)
no.	canonical_smiles	rRNA inh HTS	rRNA inh HTS OD600	rRNA inh HTS RFP	FGF22 binding
49	C[C@H](CO)N1C[C@H](C)[C@H](CN(C)C(=O)Nc2cccc3ccccc23)Oc2c(NC(=O)C3CCOCC3)cccc2C1=O	7.1	19.2	0.9	i
50	C[C@@H]1CN([C@H](C)CO)C(=O)c2cc(NS(=O)(=O)c3ccccc3)ccc2O[C@H]1CN(C)Cc1ccc(C(=O)Nc2ccccc2N)cc1	-4.0	-3.6	0.7	i
51	CN1[C@@H]2c3ccc(C4=CCCCC4)c(=O)n3C[C@H]1[C@H](CO)[C@H]2C(=O)NCc1cc(F)cc(F)c1	-6.2	-2.3	-1.5	i
52	COc1cccc(S(=O)(=O)Nc2ccc3c(c2)[C@@H]2C[C@H](CC(=O)NCc4cccc(F)c4)O[C@@H](CO)[C@@H]2O3)c1	-12.9	-34.8	3.9	i
53	CCS(=O)(=O)NCC[C@H]1CC[C@H](NS(=O)(=O)c2ccccc2C)[C@@H](CO)O1	1.8	5.2	-0.6	i
54	CN1CCN(C(=O)C[C@@H]2CC[C@@H]3[C@H](COC[C@@H](O)CN3C(=O)Nc3ccc4c(c3)OCO4)O2)CC1	0.0	3.3	-1.2	i
55	CC(=O)N1[C@@H]2c3ccc(-c4ccncc4)c(=O)n3C[C@H]1[C@H](CO)[C@H]2C(=O)NC1Cc2ccccc2C1	0.7	7.5	-3.7	i
56	C[C@@H]1CCCCO[C@H](CN(C)C(=O)c2ccccc2)[C@@H](C)CN([C@@H](C)CO)C(=O)c2cc(NC(=O)Nc3ccc(C(F)(F)F)cc3)ccc2O1	1.0	7.3	-1.0	i
57	C[C@@H]1CCCCO[C@H](CN(C)C(=O)C2CCCCC2)[C@H](C)CN([C@@H](C)CO)C(=O)c2cc(NS(=O)(=O)c3ccc(F)cc3)ccc2O1	-7.4	-1.9	2.4	i
58	COc1ccc2c3c([nH]c2c1)[C@@H](CO)N(C(=O)c1ccccc1)CC31CN(C)C1	2.8	4.5	-5.3	i
59	C[C@@H]1CN([C@H](C)CO)S(=O)(=O)c2ccc(-c3cccnc3)cc2O[C@H]1CN(C)C	0.5	-9.7	-3.4	i
60	COc1ccc(S(=O)(=O)Nc2ccc3c(c2)C(=O)N([C@H](C)CO)C[C@@H](C)[C@H](CN(C)Cc2ccccc2)OCCCC[C@@H](C)O3)cc1	2.7	-2.0	4.0	i
61	CC(C)NC(=O)Nc1ccc2c(c1)CC(=O)N([C@H](C)CO)C[C@H](C)[C@H](CN(C)Cc1ccc(C(=O)O)cc1)O2	3.9	6.4	1.1	i
62	C[C@H](CO)N1C[C@H](C)[C@H](CN(C)Cc2ccncc2)Oc2ncc(C#Cc3ccccn3)cc2C1=O	4.7	9.7	1.5	i
63	C[C@@H]1CCCCO[C@@H](CN(C)Cc2ccncc2)[C@H](C)CN([C@@H](C)CO)C(=O)c2cc(NC(=O)Nc3cccc4ccccc34)ccc2O1	-1.8	-10.6	9.7	i
64	O=C(C[C@@H]1CC[C@H]2[C@@H](COC[C@@H](O)CN2CCC(F)(F)F)O1)NCc1ccc(Oc2ccccc2)cc1	-11.8	-55.8	16.8	i
65	Cc1ccc(S(=O)(=O)N(C)C[C@H]2Oc3ccc(NC(=O)C4CC4)cc3CC(=O)N([C@@H](C)CO)C[C@@H]2C)cc1	-1.6	-5.3	0.2	i
66	CCCNC(=O)Nc1ccc2c(c1)C(=O)N(C)[C@@H]1CC[C@H](CC(=O)NC)O[C@@H]1CO2	2.2	3.4	4.0	i
67	Cc1noc(C)c1S(=O)(=O)N(C)C[C@@H]1OCCCC[C@@H](C)Oc2ccc(NS(=O)(=O)c3ccc(F)cc3)cc2C(=O)N([C@H](C)CO)C[C@@H]1C	2.5	-1.1	-1.6	i
68	CC(=O)N1CC2(C1)[C@@H](c1ccc(-c3cccc(F)c3)cc1)[C@@H](CO)N2CC1CCOCC1	-3.3	-12.3	1.8	i
69	O=C(CC1CC1)Nc1ccc2c(c1)[C@H]1C[C@@H](CC(=O)N3CCCCC3)O[C@H](CO)[C@H]1O2	1.0	6.1	-3.3	i

Compound activity from PubChem BioAssay.
